Source: PubChem
Mtb MenB inh: Mtb MenB enzyme inhibition; AID 540299; inhibition, %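 (about 12 µg/mL by stock and volumes)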; actives 0.43% (n = 100,000); MenB enzyme assay, absorbance read-out; some hits fall short of the stated cut; P9WNP5;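 active means mean of two replicates above 30%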;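 further: 0% = no compound and 100% = wells with inactive enzyme; the first replicate is given; strong numbers were not always called active; inactives centre near -10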
Target sequence (P9WNP5 whole entry, looked up): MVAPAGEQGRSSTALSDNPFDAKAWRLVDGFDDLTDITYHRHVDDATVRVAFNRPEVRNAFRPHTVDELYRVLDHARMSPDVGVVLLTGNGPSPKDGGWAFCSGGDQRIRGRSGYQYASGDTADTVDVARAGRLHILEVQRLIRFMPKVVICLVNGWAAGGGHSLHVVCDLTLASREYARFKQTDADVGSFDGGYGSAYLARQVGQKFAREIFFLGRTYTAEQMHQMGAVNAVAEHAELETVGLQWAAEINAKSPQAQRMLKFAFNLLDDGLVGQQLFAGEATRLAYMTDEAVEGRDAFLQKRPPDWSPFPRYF
Mtb MbtI inh: inhibitors of Mycobacterium tuberculosis siderophore enzyme MbtI. inhibition, %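 (about 17 µg/mL by stock and volumes)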. actives 0.89% (n = 100,000). purified MbtI enzyme, fluorescence intensity read-out;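 active means above 50% in both replicates, above 80% if mildly self-fluorescent; inactive means the rest, strongly fluorescent compounds included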;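 further: 0% = mean of negative and 100% = mean of positive controls; one replicate is shown; some compounds called inactive have numbers as strong as hits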
Target sequence (P9WFX0 whole entry, looked up): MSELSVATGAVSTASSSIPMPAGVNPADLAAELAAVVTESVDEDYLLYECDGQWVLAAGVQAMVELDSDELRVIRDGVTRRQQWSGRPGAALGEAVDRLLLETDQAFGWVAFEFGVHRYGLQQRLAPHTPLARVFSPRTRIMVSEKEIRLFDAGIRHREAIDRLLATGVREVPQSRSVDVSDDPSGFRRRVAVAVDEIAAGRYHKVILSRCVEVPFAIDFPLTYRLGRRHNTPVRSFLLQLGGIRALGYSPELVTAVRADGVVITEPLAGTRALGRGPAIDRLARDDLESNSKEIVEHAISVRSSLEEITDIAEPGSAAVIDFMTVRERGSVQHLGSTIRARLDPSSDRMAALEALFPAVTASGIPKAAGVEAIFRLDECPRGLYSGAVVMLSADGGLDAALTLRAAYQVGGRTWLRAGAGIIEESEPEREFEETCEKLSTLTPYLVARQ
Polio RdRp inh: poliovirus RNA polymerase inhibition; poliovirus polymerase elongation, fluorescence polarization; active compounds read low; % elongation, % (compound at 16.7 µg/mL); actives 0.66% (n = 150,000); AID 588519; in the data active means % elongation below about 90%; further: some results filed as inactive read as strong as hits
Polio RdRp inh intensity: second read-out of Polio RdRp inh, no call of its own (marks repeat the call); % elongation; measured here: total intensity read-out; formula for this scale not given here;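 total fluorescence in place of polarization; lower means less elongation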
Active calls of the source: *; nt = no result given; & = joins results of further samples. Rows were taken by chance; overall some 1.8% were active at least once.

SMILES | Mtb MenB inh | Mtb MbtI inh | Polio RdRp inh | Polio RdRp inh intensity
Nn1c(COc2ccccc2)n[nH]c1=S | -71 | 95* | 80* | 85*
Cc1ccc2onc(CC(=O)NCc3cccc(Cl)c3)c2c1 | -18 | -7 | 103 | 103
Cc1ccc(C=Nc2ccccc2C(N)=O)o1 | -50 | -18 | 102 | 103
O=C(Nc1ccccc1Cl)N1CCN(C/C=C/c2ccccc2)CC1 | -16 | 8 | 102 | 102
CC1CC[C@]2(NC1)O[C@H]1C[C@H]3[C@@H]4CC[C@H]5C[C@@H](O)CC[C@]5(C)[C@H]4CC[C@]3(C)[C@H]1[C@@H]2C (some centres not stated) | -7 | -6 | 99 | 103
CC(C)(C)OC(=O)N1CCN(C(=O)c2ccccc2C(=O)O)CC1 | -1 | -7 | 107 | 109
CCOC(=O)c1sc(N)c(C#N)c1COC(=O)CC1Sc2ccccc2NC1=O (configuration not stated) | -40 | -6 | 89 | 227
COc1cc2c(cc1OC)CN(C(=O)Cn1c(C)cc(C)c(C#N)c1=S)CC2 | 5 | nt | 100 | 109
CN(Cc1ccccc1)C(=O)COC(=O)c1ccc(Br)o1 | nt | -9 | 101 | 100
CCOC(=O)N1CCC(N2Cc3cccc(C(=O)Nc4cc(F)ccc4F)c3C2=O)CC1 | 4 | -6 | 101 | 102
O=C(CSc1nnc(-c2cccnc2)o1)N(C1CCCCC1)C1CCCCC1 | 3 | -15 | 101 | 102
CSc1cccc(NC(=O)CC(C)S(=O)(=O)c2ccc3c(c2)OCC(=O)N3)c1 (configuration not stated) | 6 | 0 | 102 | 107
CCOC(=O)CSc1nnc(Nc2ccccc2C)s1 | 0 | 56 | 110 | 103
O=C(NCC(F)(F)F)C1COc2ccccc2O1 (configuration not stated) | -25 | 0 | 97 | 95
O=S(=O)(Nc1cccc(I)c1)c1cccs1 | nt | -3 | 101 | 99
CC(C)CCNc1ncnc2c1nnn2Cc1ccccc1 | 6 | -2 | 100 | 102
COc1ccc(NC(=O)C2CC(=O)N/C(=N/N=C/c3ccccc3)S2)cc1 (configuration not stated) | 8 | 9 | 104 | 106
N#Cc1ccc(/C=N/NC=O)cc1 | -5 | 28 | 102 | 95
CCN(C1CCCCC1)S(=O)(=O)c1ccc(C)cc1 | -28 | nt | 110 | 101
Cc1cnc(C(=O)Nc2ccc(Cl)cc2C(=O)c2ccccc2)cn1 | nt | -7 | 102 | 104
CN(C(=S)NCc1ccc2c(c1)OCO2)C1CCS(=O)(=O)C1 (configuration not stated) | -1 | 84* | 88* | 85*
Nc1n[nH]c(CC2CCCCC2)n1 | -54 | -2 | 100 | 104
CN(CCC#N)C(=O)C1CC(=O)N(Cc2ccco2)C1 (configuration not stated) | -7 | -8 | 100 | 108
C=CCNC(=O)CN1C(=O)/C(=C/c2ccccc2)Sc2ccccc21 | -6 | 10 | 100 | 104
COc1cccc(OC)c1C(=O)NC(=O)Nc1c(C)cccc1C | 8 | -7 | 103 | 100

Next section:
SMILES | Mtb MenB inh | Mtb MbtI inh | Polio RdRp inh | Polio RdRp inh intensity
CC(CNS(=O)(=O)c1ccccc1)(c1ccccc1)N1CCCCC1 (configuration not stated) | nt | -9 | 100 | 97
Cc1nc2ccccc2n1C(F)(F)C(O)c1ccco1 (configuration not stated) | nt | -6 | 101 | 102
CCOC(=O)CSc1nnc(-c2ccc3ncccc3c2)n1C | -2 | -6 | 98 | 105
O=C(NC1CCCCC1)C(c1cccs1)N(C(=O)CC1CC2CCC1C2)c1ccccc1 (configuration not stated) | -15 | nt | 106 | 106
Cc1cc(C)c(C#N)c(SC2CCc3ccccc3C2=O)n1 (configuration not stated) | -3 | -6 | 102 | 102
COC(=O)c1cc(-c2cc(OC)c(OC)c(OC)c2)nn1-c1ccccn1 | -6 | 0 | 101 | 99
O=C(CO/N=C/c1ccccc1)N=Nc1c(O)n(CN2CCCC2)c2ccccc12 | 5 | 9 | 102 | 102
CCCNC(=O)c1c(C)oc2ncnc(N3CCCCC3)c12 | -24 | -6 | 106 | 102
NS(=O)(=O)c1ccc(S(=O)(=O)N(Cc2ccccc2F)CC2CCCO2)cc1 (configuration not stated) | -19 | -4 | 102 | 103
CCOC(=O)c1oc2ccccc2c1NC(=O)CSc1nnc(SCC)s1 | -8 | -4 | 96 | 103
COC(=O)c1cc(S(=O)(=O)N(C)C2CCCCC2)c[nH]1 | 2 | -8 | 102 | 106
CC(=O)Nc1ccc(N/C=C2/CCCCC2=O)cc1 | -32 | -1 | 101 | 102
C=CCn1c(SC(C)C(=O)N2CCCC2)nc2scc(C3CC3)c2c1=O (configuration not stated) | 10 | 9 | 98 | 103
C=CCOc1ccc(Cl)cc1C(=O)O | -28 | -2 | 104 | 103
Cn1c(CNc2cccc(C(F)(F)F)c2)n[nH]c1=S | -13 | 36 | 100 | 103
O=C(NCCN1CCOCC1)c1ccc(CS(=O)c2ccc(Br)cc2)o1 (configuration not stated) | -8 | -7 | 103 | 102
COc1ccc(NC(=S)NCC(c2ccco2)N(C)C)cc1 (configuration not stated) | -7 | 13 | 102 | 97
COc1cccc(NC(=O)c2ccccc2N(C)C(=O)CCC(=O)Nc2cccnc2)c1 | -3 | -35 | 108 | 111
Cc1ccc(CNC(=O)c2ccccc2C(=O)O)cc1 | 1 | -15 | 103 | 105
NC(=O)c1ccccc1NS(=O)(=O)c1cccs1 | -8 | 3 | 102 | 103
N#Cc1ccc(CSc2nnc(N3CCOCC3)n2-c2ccccc2)cc1 | -34 | -6 | 100 | 108
C=CCN1C(=O)C2(OCCCO2)c2ccccc21 | -33 | 4 | 102 | 104
CCc1nc2ccc(C(=O)NCCN3CCCCC3C)cc2nc1CC (configuration not stated) | 8 | -14 | 98 | 105
CC(C)N(C(=O)C12CC3CC(CC(C3)C1)C2)c1ccccn1 | nt | -5 | 103 | 107
O=C1CCN(c2cc(Nc3cccc(F)c3)c3c4c(onc24)-c2ccccc2C3=O)CC1 | -38 | 1 | 107 | 179

Single values from above.
COC(=O)c1cc(S(=O)(=O)N(C)C2CCCCC2)c[nH]1 @ Polio RdRp inh intensity = 106
CN(C(=S)NCc1ccc2c(c1)OCO2)C1CCS(=O)(=O)C1 (configuration not stated) @ Mtb MenB inh = -1
O=C(NC1CCCCC1)C(c1cccs1)N(C(=O)CC1CC2CCC1C2)c1ccccc1 (configuration not stated) @ Polio RdRp inh intensity = 106

(listing goes on)
SMILES | Mtb MenB inh | Mtb MbtI inh | Polio RdRp inh | Polio RdRp inh intensity
CCN(CC)c1ccc(/C=C2\CC/C(=C\C(C)C)C2=O)cc1 | -53 | -3 | 71 | 197
CC(C)[C@H](NC(=O)OCc1ccccc1)C(=O)N[C@H](C=O)Cc1ccccc1 | -2 | -8 | 103&101 | 101&101
COc1ccc(NC(=O)Cn2ccc3c(OC)cccc3c2=O)cc1 | -27 | 195 | 103 | 111
CCN1CCN(Cc2ccc(NC(=O)Nc3ccc(SC)cc3)cc2)CC1 | -15 | 0 | 101 | 99
CCOC(=O)Nc1ccc2c(COC(=O)c3cc(-c4ccco4)nc4ccccc34)cc(=O)oc2c1 | 9 | 109 | 102 | 111
COc1ccc(OC)c(NC(=O)CSc2cn(C)c3ccccc23)c1 | -26 | 12 | 101 | 103
O=C(COCc1cc(-c2ccc(F)cc2)on1)NCC1CCCO1 (configuration not stated) | -16 | 6 | 106 | 108
CN(Cc1ccc(-c2ccc(Br)cc2)o1)C(=O)c1ccc(S(N)(=O)=O)cc1 | 1 | 53 | 101 | 98
C=CCSC1=C(C#N)C(c2cccc(Cl)c2Cl)CC(=O)N1 (configuration not stated) | -11 | 2 | 105 | 102
N/C(CC(=O)Nc1ccccn1)=N\O | -3 | -2 | 103 | 97
N=C1c2ccccc2CN1Cc1ccc(CN2Cc3ccccc3C2=N)cc1 | 1 | -17 | 110 | 109
CCSc1nnc(-c2c[nH]c3ccccc23)n1-c1cccc(OC)c1 | -6 | -12 | 106 | 109
CCCCC(=O)Nc1cccc2c1C(=O)N(c1ccccc1)C2=O | -6 | -16 | 100 | 104
O=C(O)c1ccc(NS(=O)(=O)c2ccc3nnn(O)c3c2)cc1 | 5 | 3 | 100 | 91
O=c1ccc2cc3c4c(c2o1)CCCN4CCC3 | -28 | 116 | 83 | 194
CCc1ccccc1N(C)S(=O)(=O)c1ccc(-c2cc(C(F)(F)F)no2)s1 | -9 | -22 | 101 | 102
C/C(=N\NC(N)=O)c1ccc(C)c(C)c1 | 12 | 11 | 101 | 106
CC(OC(=O)c1ccc2c(c1)S(=O)(=O)c1ccccc1C2=O)C(N)=O (configuration not stated) | -8 | -3 | 100 | 94

Filtered by structure: the entries above with four or more nitrogen atoms (17)
SMILES | Mtb MenB inh | Mtb MbtI inh | Polio RdRp inh | Polio RdRp inh intensity
Nn1c(COc2ccccc2)n[nH]c1=S | -71 | 95* | 80* | 85*
O=C(CSc1nnc(-c2cccnc2)o1)N(C1CCCCC1)C1CCCCC1 | 3 | -15 | 101 | 102
CC(C)CCNc1ncnc2c1nnn2Cc1ccccc1 | 6 | -2 | 100 | 102
COc1ccc(NC(=O)C2CC(=O)N/C(=N/N=C/c3ccccc3)S2)cc1 (configuration not stated) | 8 | 9 | 104 | 106
Nc1n[nH]c(CC2CCCCC2)n1 | -54 | -2 | 100 | 104
CCOC(=O)CSc1nnc(-c2ccc3ncccc3c2)n1C | -2 | -6 | 98 | 105
O=C(CO/N=C/c1ccccc1)N=Nc1c(O)n(CN2CCCC2)c2ccccc12 | 5 | 9 | 102 | 102
CCCNC(=O)c1c(C)oc2ncnc(N3CCCCC3)c12 | -24 | -6 | 106 | 102
Cn1c(CNc2cccc(C(F)(F)F)c2)n[nH]c1=S | -13 | 36 | 100 | 103
COc1cccc(NC(=O)c2ccccc2N(C)C(=O)CCC(=O)Nc2cccnc2)c1 | -3 | -35 | 108 | 111
N#Cc1ccc(CSc2nnc(N3CCOCC3)n2-c2ccccc2)cc1 | -34 | -6 | 100 | 108
CCc1nc2ccc(C(=O)NCCN3CCCCC3C)cc2nc1CC (configuration not stated) | 8 | -14 | 98 | 105
CCN1CCN(Cc2ccc(NC(=O)Nc3ccc(SC)cc3)cc2)CC1 | -15 | 0 | 101 | 99
N/C(CC(=O)Nc1ccccn1)=N\O | -3 | -2 | 103 | 97
N=C1c2ccccc2CN1Cc1ccc(CN2Cc3ccccc3C2=N)cc1 | 1 | -17 | 110 | 109
CCSc1nnc(-c2c[nH]c3ccccc23)n1-c1cccc(OC)c1 | -6 | -12 | 106 | 109
O=C(O)c1ccc(NS(=O)(=O)c2ccc3nnn(O)c3c2)cc1 | 5 | 3 | 100 | 91
